M1 agonist = M1 muscarinic receptor agonists, primary screen, CHO-M1 cells, Fluo-4 calcium, agonist mode; Muscarinic acetylcholine receptor M1; Fluo-4 calcium fluorescence; hits give high values; B-score at 10 µM; 3% of 64,000 active; AID 626, 2007;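 active = fluorescence rise, raw or as B-score row- and column-corrected plate score, outside the 99.7% band of its plate's samples, either direction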
D1 allo mod = D1 CRE-luciferase signal change, two-sided – cell-based, HEK293 D1, dopamine EC30, D1 allosteric modulator project, primary screen. dopamine EC30 potentiation; actives deviate in either direction. B-score at 10 µM. 5.9% of 58,000 active. AID 641, 2007;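 active = luminescence count or its row- and column-corrected plate score outside the 99.7% band of the plate's sample wells, on either side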
Target sequence (P21728 whole entry, looked up): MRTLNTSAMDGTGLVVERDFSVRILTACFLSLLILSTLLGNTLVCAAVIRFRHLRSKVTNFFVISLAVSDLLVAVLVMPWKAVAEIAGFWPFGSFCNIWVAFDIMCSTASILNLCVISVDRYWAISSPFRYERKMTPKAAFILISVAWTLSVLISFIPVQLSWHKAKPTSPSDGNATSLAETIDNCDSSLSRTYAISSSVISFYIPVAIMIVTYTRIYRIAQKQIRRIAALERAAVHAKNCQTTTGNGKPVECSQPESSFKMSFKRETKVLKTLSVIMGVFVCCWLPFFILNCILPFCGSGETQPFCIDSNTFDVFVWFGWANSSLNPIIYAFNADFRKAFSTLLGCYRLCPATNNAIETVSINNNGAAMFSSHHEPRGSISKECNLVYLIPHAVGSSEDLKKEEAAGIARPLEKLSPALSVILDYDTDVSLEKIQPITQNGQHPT
M1 antag = antagonists of rat M1 muscarinic receptor; Muscarinic acetylcholine receptor M1 (Rattus norvegicus), P08482; CHO-M1 cells, Fluo-4 calcium, ACh EC80 antagonist mode; hits give low values; B-score at 10 µM; 3.4% of 64,000 active; AID 628, 2007;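 active = calcium fluorescence response, raw or row-and-column corrected B-score, differing from the plate sample mean either way at a set confidence level, mostly lower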
tolC growth inh = growth inhibitors of E. coli tolC mutant, primary screen, strain BW25113 ΔtolC::kan, 384-well | growth inhibition, % at 10 µM (by protocol) | 2.2% of 65,000 active | OD615;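 active = growth inhibition at or above a cutoff equal to the mean over every tested compound plus 3 SD, cut at about 60% in these data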;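 also: growth measured after 20 h incubation at 37 °C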
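Signal: optical density read at 615 nm; Assay system: E. coli ΔtolC::kan strain BW25113; Times: 20 h incubation with compound, 37 °C; Dosing: 10 µM final, single dose.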
HEK293 NFkB inh = inhibitors of PMA/ionomycin-induced NF-kB reporter, primary screen, antigen receptor NF-kB inhibitor project, cell-based, HEK-293 luciferase reporter, luminescence | HEK-293 NF-kB luciferase reporter | AID 465, 2006 | 0.21% of 62,000 active | inhibition, % at 3 µM;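 active = inhibition above the mean of all tested compounds plus 3 SD, cut at about 40% in these data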;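 also: 0% = stimulated DMSO wells and 100% = 10 µM reference inhibitor 5653914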
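System: NF-kB luciferase reporter HEK-293 cells | Replication: Single test | Control set: DMSO vs reference inhibitor | Evaluation: % inhibition | Schedule: 1 h pretreatment, 16 h stimulation, 37 °C | Probe or stimulus: PMA with ionomycin | Compound dosing: One dose, 3 µM | Detection: Luciferase luminescence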
TNAP act mid DEA = human TNAP enzyme activators, primary screen, biochemical, luminescent, intermediate phosphate acceptor level; Alkaline phosphatase, tissue-nonspecific isozyme (Homo sapiens), P05186; activation factor at 20 µM; purified TNAP, CDP-star luminescence, 100 mM DEA, 30 min; hits give high values; scale: 0 levamisole-inhibited, 1 vehicle-only enzyme; AID 813, 2007; 64,000 tested, under 10 active;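 active = activation factor of at least 2 at 20 µM, relative to controls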
SF1 activator = activators of human SF-1, primary screen, cell-based, CHO-K1, Gal4-SF-1 LBD, luciferase luminescence | Steroidogenic factor 1 (Homo sapiens), Q13285 | CHO-K1 Gal4-SF-1 LBD luciferase reporter; % increase over DMSO SF-1-specific signal | activation, % at 10 µM | 1.9% of 65,000 active;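 active = activation above the mean activation of all tested compounds plus 3 SD, cut at about 50% in these data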
Target sequence (Q13285 whole entry, looked up, the tested form may be a part): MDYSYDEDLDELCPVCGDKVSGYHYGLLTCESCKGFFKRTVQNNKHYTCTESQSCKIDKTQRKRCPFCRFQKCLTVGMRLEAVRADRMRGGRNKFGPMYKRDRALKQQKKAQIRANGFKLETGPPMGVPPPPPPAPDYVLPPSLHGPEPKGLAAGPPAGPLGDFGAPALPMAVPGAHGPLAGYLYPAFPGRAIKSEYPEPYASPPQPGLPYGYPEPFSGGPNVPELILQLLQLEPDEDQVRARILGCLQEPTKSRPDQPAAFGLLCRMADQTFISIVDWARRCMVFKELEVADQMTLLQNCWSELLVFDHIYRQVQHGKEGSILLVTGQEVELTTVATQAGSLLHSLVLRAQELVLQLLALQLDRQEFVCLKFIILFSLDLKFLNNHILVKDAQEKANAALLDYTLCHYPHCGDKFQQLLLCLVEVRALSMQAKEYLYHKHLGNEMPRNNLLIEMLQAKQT
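Test system: CHO-K1 cells with Gal4–hSF-1 LBD chimera plus Gal4-driven luciferase; Input: 4,000 cells/well; Compound: 10 µM only; Times: 20 h compound treatment, 37 °C; Measured by: steady-glow luciferase luminescence, read after 15 min reagent incubation; Measure: percent activation versus DMSO; Control set: DMSO and mock-transfected background; Replicates: one test per compound.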
Jurkat tox 60K = cytotoxicity toward Jurkat T cells, primary screen, cytotoxicity control, cell-based, Jurkat E6.1, 60K MLSMR library; AID 463, 2006; 1.2% of 56,000 active; inhibition, % at 4 µM; Jurkat E6.1 viability, ATP luminescence, 48 h;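 active = inhibition above the mean inhibition of all tested compounds plus 3 SD, cut at about 28% in these data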
* = called active by the depositor; . = no result given.

Value order – M1 agonist	D1 allo mod	M1 antag	tolC growth inh	HEK293 NFkB inh	TNAP act mid DEA	SF1 activator	Jurkat tox 60K
CCCN1C(=O)c2ccc(C(=O)NC3=NCCS3)cc2C1=O
  0.18	1.3	1	19	-4	1	19	-6
O=C(CSCCNS(=O)(=O)c1ccccc1)Nc1ccccc1
  -0.82	0.3	0.0031	-3	-5	0.9	9	6
COC(=O)C1CCN(Cc2cc(=O)oc3cc(OC)ccc23)CC1
  0.93	-0.38	-0.51	-5	15	1	-19	7
Cc1ccc(CNC(=O)C2CC(=O)OC23CCCC3)c(C)c1 (stereo not given)
  0.053	-0.19	-0.086	-8	14	0.9	6	0
COc1ccc(C(=O)Nc2nncs2)c(OC)c1
  0.75	-0.6	0.036	7	-4	0.9	40	-4
O=C(Cc1cccs1)OCC(=O)c1ccco1
  0.63	0.94	0.41	-19	-7	0.9	0	0
O=C1NCCCC1C(=O)NCCNC(=O)C(F)(F)F (stereo not given)
  0.79	0.13	-0.97	3	14	1	2	10
CC(C)c1ccc(O)c(NC(=O)c2cncc(Br)c2)c1
  -0.5	0.63	-1	1	10	0.9	-8	1
O=C(c1cnccn1)N(c1ccccc1)C1(C(=O)NC2CCCCC2)CCCCC1
  0.24	-0.64	-0.027	6	13	1	0	.
O=C(NCc1n[nH]c(=S)n1-c1ccc(F)cc1)c1ccco1
  -0.00019	0.61	0.51	-12	10	0.8	4	.
CCOC(=O)C1CCN(Cc2c(F)cccc2Cl)CC1
  -0.75	0.24	0.13	-13	11	0.9	-11	2
O=C(NCCN1CCN(c2ccccc2)CC1)C1CCN(S(=O)(=O)c2cccs2)CC1
  0.031	-0.39	-2.1	0	-6	0.9	4	1
CN(C)c1ccc(C(=O)Nc2ccc(S(=O)(=O)NC3=NCCCCC3)cc2)cc1
  -0.64	-0.31	0	12	19	0.9	13	.
CCOC(=O)N1CCN(Cc2nc3c(c(=O)n(C)c(=O)n3C)n2Cc2cccc3ccccc23)CC1
  -0.15	-0.52	0	10	16	.	0	9
O=C(CN1CCOCC1)Nc1ncccn1
  .	-0.24	.	-11	.	0.9	.	.
COc1ccc(NC(=O)COc2nc(N(C)C)nc(N(C)C)n2)cc1
  -0.25	.	-0.18	6	2	0.9	3	-6
Cc1oc2c(CN(C)C)c(O)ccc2c(=O)c1-c1cscn1
  0.8	0.11	0.057	-10	19	0.9	-1	-1
CC(C)CC(c1nnnn1C(C)C)N1CCN(c2cccc(Cl)c2)CC1 (stereo not given)
  0.94	-1.2	-0.15	45	19	0.9	-3	-2
Cc1ccc(CNC(=O)C2CNc3cc(C)ccc3O2)cc1 (stereo not given)
  0.91	0.39	-0.56	-7	3	0.9	-5	1
Cc1c(NC(=O)CC(O)(C(F)(F)F)C(F)(F)F)c(=O)n(-c2ccccc2)n1C
  -0.31	0.63	-0.004	-24	10	0.9	-8	0
CC(=O)SCCC(=O)N1C(C)CCCC1C(=O)O (stereo not given)
  0.012	0.011	-0.014	1	19	0.9	-15	7
Cc1ccccc1NS(=O)(=O)c1ccc(F)cc1
  -0.35	-0.028	0.3	6	17	0.9	-2	0
CC(C)CC(c1nnnn1CC1CCCO1)N1CCN(c2nc3ccccc3s2)CC1 (stereo not given)
  0.28	-0.69	-0.001	9	18	0.9	1	-1
O=C(COc1ccc2ccccc2c1)N1CCCC1
  0.51	-0.39	-0.099	1	14	0.9	29	4
CCOC(=O)C1CCN(C(=O)CC2C(=O)N(Cc3ccccc3)C(C)c3nc4ccccc4n32)CC1 (stereo not given)
  -0.13	-0.45	0.0059	0	6	1	14	-1
CCOc1ncccc1C(=O)OCC(=O)N1CCN(S(=O)(=O)c2ccc(Cl)cc2)CC1
  0.37	1.2	-0.17	8	11	0.9	3	-4
Cc1cc(S(=O)(=O)N2CCN(c3c(C)cccc3C)CC2)ccc1F
  -1.7	-0.5	0.39	47	9	.	8	6
O=C(c1cccs1)N1CCC(N2CCN(c3ccccc3)CC2)CC1
  -0.34	-2.5	-1.8	4	.	1	-3	.
Cn1c(SCC(=O)Nc2ccc3c(c2)OCCO3)nnc1-c1ccccn1
  0.11	0.88	0.013	-13	8	1	6	-1
CC1(N2CCOCC2)CC2(O)C(=[N+]1[O-])CCc1nonc12 (stereo not given)
  0.077	-0.16	0.039	-8	-11	0.7	1	-8

Among those listed so far, 2 have two or more sulfur atoms:
Value order – M1 agonist	D1 allo mod	M1 antag	tolC growth inh	HEK293 NFkB inh	TNAP act mid DEA	SF1 activator	Jurkat tox 60K
O=C(CSCCNS(=O)(=O)c1ccccc1)Nc1ccccc1
  -0.82	0.3	0.0031	-3	-5	0.9	9	6
O=C(NCCN1CCN(c2ccccc2)CC1)C1CCN(S(=O)(=O)c2cccs2)CC1
  0.031	-0.39	-2.1	0	-6	0.9	4	1

Later entries:
Value order – M1 agonist	D1 allo mod	M1 antag	tolC growth inh	HEK293 NFkB inh	TNAP act mid DEA	SF1 activator	Jurkat tox 60K
CCc1cc(=O)oc2cc(OCC(=O)OC)c(Cl)cc12
  -0.49	-0.19	0.78	1	3	1	3	.
CCOC(=O)c1ccc2nc(C)c3c(c2c1)OC(C)C3 (stereo not given)
  -0.15	-2.7*	0.15	7	12	0.8	-10	0
CC1=CC(C)(C)Nc2ccc(OC(=O)CN3C(=O)CCC3=O)cc21
  0.15	-0.19	-0.24	-12	40*	0.9	-14	-3
CCCCCn1c(CNC(=O)CCC)nc2ccccc21
  0.025	0.011	0.59	10	6	0.9	12	3
CCn1cc(C(=O)NCc2cccs2)c(=O)c2ccc(C)nc21
  0.27	1.3	0.2	1	8	1	24	-8
COc1cccc(C(=O)N2CCN(Cc3ccccn3)CC2)c1OC
  0.27	0.39	-0.35	14	.	0.9	0	.
Cc1scc(C(=O)Nn2cnnc2)c1-c1ccccc1
  0.35	-0.48	0.37	5	16	0.9	-1	-7
Brc1ccccc1OCCCN1CCOCC1
  0.41	-3	0.75	-2	-5	0.9	7	3
COC(=O)c1nc(-c2ccccc2)n[nH]1
  0.19	-0.043	-0.062	-6	21	0.9	5	.
CCc1nnc(SCc2cn3c(C)cc(C)nc3n2)n1N
  -0.83	-1.6	0.26	-7	25	1	0	0
COc1ccc(-c2nc(NC(=O)c3cc(C(C)(C)C)nn3C)sc2C)cc1
  -0.63	-1.6	1.5	47	18	0.9	-12	3
O=C(CSc1nnc(-c2ccc(O)cc2)o1)N1CCOCC1
  -0.1	-0.62	-0.092	-18	-1	0.9	29	4
O=C(CN1CCN(c2ncccn2)CC1)N(Cc1ccccc1)c1ccc(F)cc1
  1.2	-1.1	-0.69	17	8	0.9	11	.
COc1ccc(O)c(-c2cn[nH]c2-c2cccs2)c1
  0.86	-0.037	-1	15	11	0.9	10	-1
COC(=O)c1cccc(S(=O)(=O)N2CCN(c3nc4ccccc4s3)CC2)c1
  0.79	-2.8*	0.64	-25	11	0.9	-10	7
COC(=O)c1cc(Br)c(=O)n(CCN2CCOCC2)c1
  -0.003	-0.15	0.81	-6	19	1	-6	10
c1ccc(OCCN2C3=NCCN3c3ccccc32)cc1
  -0.0057	-3.1	-0.72	-3	7	0.9	-4	-5
Oc1c(CN2CCOCC2)cc(-c2ccccc2)cc1CN1CCOCC1
  -0.99	-0.2	0.063	17	15	1	11	-2
CCn1c2ccccc2c2nnc(SCC(=O)c3ccccc3)nc21
  .	.	.	4	14	0.9	-4	-5
Nc1nnc(-c2ccc(F)cc2)s1
  0.27	0.23	-0.19	-5	10	1	-5	-4
C=C(C)Cn1c(CCNC(=O)C(C)(C)C)nc2ccccc21
  -0.48	0.037	0.41	3	10	0.9	10	.
CCOC(=O)N1CCN(CC(=O)Nc2cc(OCC)ccc2OCC)CC1
  0.00065	-1.6	-0.1	15	12	1	-2	.
Cc1ccccc1NC(=O)Nc1cccs1
  1.1	.	-0.3	0	21	0.9	-5	.
O=C(Nc1ccccc1Sc1ccccc1)C1CCCO1 (stereo not given)
  -0.57	3.6	-2	10	24	0.9	-13	7
Cc1cc2cc(CN(CCN3CCOCC3)C(=O)Nc3ccccc3F)c(=O)[nH]c2cc1C
  1.2	2.7*	0.59	19	3	0.9	1	3
Cc1cc(C)n2c(SCCN3C(=O)c4ccccc4C3=O)nnc2n1
  -0.17	0.18	0.23	-12	8	0.9	-21	-5
CCOc1ccc2nc(SCC#N)c(C#N)cc2c1
  0.61	-0.0021	-0.23	-33	-14	0.9	41	-2
O=C(NC(C(=O)c1ccccc1)n1ccc(=O)[nH]c1=O)c1ccccc1 (stereo not given)
  0.39	-0.1	0.5	-10	4	1	3	0
CCC1Oc2ccc(C)cc2N(CC(=O)NCc2ccccc2OC)C1=O (stereo not given)
  0.0044	-1.6	-0.011	11	6	1.1	-5	5
CCOc1cc(CN2CCN(c3cccc(C(F)(F)F)c3)CC2)ccc1O
  0.3	.	0.2	20	14	0.9	-28	6
COc1cccc(C(=O)N2CCN(C3CCC(c4ccccc4)CC3)CC2)c1OC (stereo not given)
  18*	-1.7	-3.1*	14	17	0.9	-5	1
CCOc1ccc2nc(N3CCCC(C(=O)N4CCN(CC)CC4)C3)sc2c1 (stereo not given)
  0.31	-0.79	-0.4	-3	-8	0.9	-1	-9
COc1ccc(-c2cnc(SCC(=O)Nc3ccc4c(c3)OCO4)n2Cc2ccco2)cc1
  -1.3	0.15	-0.15	66*	11	1	-12	.
Cc1nc2ncnn2c(C)c1CCC(=O)N1CCOCC1
  -0.12	.	-0.4	-14	6	1	6	-3
Cc1c(C(=O)NCC(C)C)sc2nc(-c3ccc(F)cc3)cn12
  -0.23	0.17	0.0024	-5	-16	1	37	1
COc1ccc(Cn2nnnc2C(c2cc3cc(C)cc(C)c3[nH]c2=O)N2CCOCC2)cc1 (stereo not given)
  -1.2	0.75	0.29	0	9	0.8	8	1
O=C(NCc1ccco1)C1CCN(S(=O)(=O)N2CCOCC2)CC1
  -0.29	0.63	0.32	-15	17	0.9	-5	-6
COc1cc(C2C(C(=O)c3ccco3)=C(O)C(=O)N2Cc2cccnc2)cc(OC)c1OC (stereo not given)
  -0.3	0.31	0.0081	-2	10	0.9	2	13
CC(=O)NCCOc1c(C)cc(S(N)(=O)=O)cc1C
  -0.21	.	0.84	8	0	1	18	0
O=C(NCc1ccccc1)c1cc(S(=O)(=O)N2CCOCC2)ccc1F
  0.77	0.33	0.6	2	14	0.9	14	.
CCOc1ccc(OCC)c(NC(=O)CN2CCN(c3ccc(C)cc3C)CC2)c1
  -0.1	-0.44	-0.39	27	28	0.9	13	.
CCOC(=O)N1CCN(CC(=O)Nc2c(C(=O)OC)[nH]c3ccc(Cl)cc23)CC1
  -1	1.7	0.14	86*	28	0.9	-8	31*
O=C1CC(NC23CC4CC(CC(C4)C2)C3)C(=O)N1c1ccc2c(c1)OCO2 (stereo not given)
  -1.2	-0.26	0.58	0	4	0.9	3	6
COc1ccc(S(=O)(=O)NC(C)C(=O)Nc2ccccc2F)cc1 (stereo not given)
  0.33	0.26	0.43	3	21	1	-3	-2

Screening results from PubChem.

The list is partial. The share of hits here may be higher or lower than overall.
